HTT promoter inh: inhibits huntingtin promoter activity; Potency, µM (titrated, usually from 57.5 µM), without a hit: top-dose activity change, negative = inhibition, actives largely listed as inhibitors; hit rate 0.93% among 48,000; HEK293 HTT promoter firefly luciferase reporter (activity 0% = vehicle and -100% = no light), 24 h; active = well fitted inhibition curve with a large enough effect; inconclusive = small, poorly fitted or top-dose-only effect; inactive = no such curve, though single readings can be large or run the other way; also: nearly all actives have a fitted effect of over 50% in size
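Firefly luciferase signal from promoter-reporter HEK293 cells was scaled between vehicle (0%) and zero RLU (-100%). Compounds were tested at final concentrations of up to 57.5 uM over 24 h at 37 degrees C. PTC124 at 50 uM final served as control inhibitor.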
PMP22 txn: PMP22 gene transcription modulation; S16 Pmp22-F2sN Schwann cells (luciferase reporters placed in the Pmp22 gene), FLuc/NLuc coincidence luminescence, 24 h; Potency, µM (top dose mostly 57.5 µM), for inactives: at the highest dose activity change, negative = inhibition, hits mostly inhibitors; hit rate 2% among 43,000; AID 1508649; active = clear falling dose curves in both reporters; inconclusive = both reporters move, but less clearly or upward; inactive = either reporter flat; the % is the NLuc reporter signal; also: % is scaled to controls: 0 for no effect and ±100 for the full control effect; some results filed as inactive show a strong effect at the top dose
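S16 Schwann cells carrying FLuc/NLuc coincidence reporter in the Pmp22 3' UTR treated with compound 24 h at 37C; FLuc then NLuc luminescence read sequentially by dual-luciferase reagents.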
Numbers without * were called inactive; ? = inconclusive; . = no result given; & = joins results of further samples; [ ] = another dose, or the depositor's remark. Potency is read from the fitted curve at half-maximal effect.

Values in the order – PMP22 txn | HTT promoter inh
- CCOc1ccc(-c2n[nH]c3c2C(c2cccs2)N(c2ccc(Br)cc2)C3=O)cc1 (stereo unspecified)
 : ? | ?
- COc1ccc(CCNC(=O)c2cc(-c3ccc(C)c(C)c3)nc3ccccc23)cc1OC
 : ? | -15%
- CCc1ccc(NC(=O)Cn2ncc3c4ccccc4n(C)c3c2=O)cc1
 : 2% | 0%
- Cc1cccc(NC(=O)CSc2nc3ccc(NC(=O)COc4ccc(Cl)cc4)cc3s2)c1
 : ? | ?
- Cc1ccc(CNC(=O)Cn2ccn(-c3cc(C)cc(C)c3)c(=O)c2=O)cc1
 : -1% | -21%
- COc1cccc(CNC(=O)c2ccc(NC(=O)N3CCCCc4ccccc43)cc2)c1OC
 : ? | -16%
- CC(C)(C)OC(=O)N1CCC(c2c(C(=O)NCCN3CCc4ccccc4C3)cnn2-c2ccc(F)cc2F)CC1
 : ? | -10%
- Cc1cccc(C2=Nc3ccccc3N=C(c3cc(Cl)ccc3O)C2)c1
 : -6% | -22%[11.5 µM]
- Cc1cc(Nc2ccc(Br)c(C)c2)n2nc(-c3ccco3)nc2n1
 : -20% | ?
- CCc1ccc(NC(=O)Cn2cnc3sc(C)c(S(=O)(=O)N4CCC(C)CC4)c3c2=O)cc1
 : -3% | -17%
- CC(C)c1ccc(S(=O)(=O)Nc2cc3c(cc2NCc2ccccc2)n(C)c(=O)n3C)cc1
 : ? | ?
- Cc1ccc(NC(=O)c2sc3ccccc3c2Cl)cc1
 : -12% | 63%[activator]
- CCc1cccc(C)c1NC(=O)CCCn1c(C)c2cnn(-c3ccccc3)c(=O)c2c1C
 : -21% | ?
- O=C(Cn1c(=O)n(-c2cccc(Cl)c2)c(=O)c2sc3ccccc3c21)NC1CCCCC1
 : ? | -15%
- Cc1ccc(-c2nnc(Nc3ccccc3)c3ccccc23)cc1S(=O)(=O)NCc1nc2ccccc2[nH]1
 : ? | ?
- O=C(c1cnn(-c2ccc(F)cc2)c1-n1cccc1)N1CCN(c2ccccc2)CC1
 : 1% | -13%
- Nc1c(C(=O)Nc2ccc(Cl)cc2F)sc2nc(-c3cccs3)ccc12
 : 0% | 39%
- Cc1ccc2oc(-c3cccc(NC(=O)c4sc5c([N+](=O)[O-])cccc5c4Cl)c3)nc2c1
 : ? | -9%
- COc1cccc(C(=O)Nc2ccccc2C(=O)OCc2cc(=O)n3nc(C)sc3n2)c1
 : 0% | -13%
- COc1ccc(N(CC(=O)NCc2ccc(F)cc2)S(=O)(=O)c2c(C)noc2C)cc1
 : -13% | -16%
- Nc1ccncc1N
 : . | -2%
- COc1ccc(NC(=O)C2CCN(C3=NS(=O)(=O)C(c4ccc(C)c(C)c4)=C3C)CC2)cc1OC
 : -4% | -24%
- COC(=O)c1ccc(NC(=O)CSc2nccn2Cc2ccc(Cl)cc2)cc1
 : -26% | ?
- Cc1ccc2nc(COc3ccccc3NC(=O)c3ccc(F)cc3)cc(=O)n2c1
 : -2% | -12%
- CCCCOc1ccc(C(=O)N2CCC(c3nc4ccccc4o3)CC2)cc1
 : -38% | ?
- Cn1cccc1-c1cc2n(n1)CCC(=O)N2CCCC(=O)NCc1cccc(Cl)c1
 : ? | 8%
- CCOC(=O)c1c(NC(=O)COc2cccc(C(F)(F)F)c2)sc2c1CCC(C)C2 (stereo unspecified)
 : 7% | -21%[11.5 µM]
- COCCCNC(=O)CSC1=Nc2ccccc2C2=NC(CCC(=O)NCc3ccccc3OC)C(=O)N12 (stereo unspecified)
 : -24% | -25%
- CCOC(=O)c1c(NC(=O)CSc2nc(-c3ccccc3)cc(C(F)(F)F)n2)sc(C)c1C
 : -20% | -23%[11.5 µM]
- O=C(Nc1nc2ccccc2n1CCN1CCOCC1)c1cccc([N+](=O)[O-])c1
 : . | 0%
- CCc1ccc(NC(=O)CSc2nc3ncccc3[nH]2)cc1
 : ? | -18%
- COc1ccc(NC(=O)CSc2nnc(N)s2)cc1
 : 0% | 12%
- CCCCN(CC)C(=O)c1c[nH]c2ccc(S(=O)(=O)Nc3cccc(OC)c3)cc2c1=O
 : -19% | -4%
- Cc1c(C(=O)N2CCCC2)oc2c1-c1nn(CC(=O)NCCCOC(C)C)cc1CC2
 : -40% | -18%
- CCOc1ccc(Nc2c(S(=O)(=O)c3ccc(C)cc3)cnc3ccccc23)cc1
 : ? | ?
- Cc1nn(-c2ccccc2)c2c1cc1c(=O)[nH]c(=O)nc-1n2-c1cccc(Cl)c1
 : -4% | -7%
- CN1Cc2cc(C(=O)N3CCC(C4CCNCC4)CC3)ccc2N[C@@H](CC(=O)O)C1=O
 : . | 1%
- CCCCn1cc(S(=O)(=O)c2ccc(C)c(C)c2)c(=O)c2cc(F)c(N3CCCC(C)C3)cc21 (stereo unspecified)
 : -7% | 2%
- O=C(CCCn1c(=O)c2cccn2c2ccc(F)cc21)NCCc1ccccc1
 : ? | -2%
- COc1ccc(Br)cc1S(=O)(=O)Nc1cc(-c2cn3ccccc3n2)ccc1C
 : -19% | ?

Single records, from the list above:
COc1ccc(Br)cc1S(=O)(=O)Nc1cc(-c2cn3ccccc3n2)ccc1C is listed with PMP22 txn: -19%; HTT promoter inh: ?
Nc1c(C(=O)Nc2ccc(Cl)cc2F)sc2nc(-c3cccs3)ccc12 is listed with PMP22 txn: 0%; HTT promoter inh: 39%

New compounds follow
Values in the order – PMP22 txn | HTT promoter inh
- Nc1cccc(S(=O)(=O)N2CCCN(S(=O)(=O)c3ccc4c(c3)OCCO4)CC2)c1
 : . | -9%
- COc1ccc(CNC(=O)c2cnn(-c3ccc(C)cc3)c2-n2cccc2)cc1OC
 : ? | 16µM*
- COc1cc(OC)cc(-c2cc3nc(C)c(CCC(=O)Nc4ccc(C(C)=O)cc4)c(C)n3n2)c1
 : -8% | 3.2µM*
- O=C(CCC1N=C2c3ccccc3N=C(SCC(=O)Nc3ccccc3F)N2C1=O)NCc1ccccc1 (stereo unspecified)
 : -17% | -2%
- O=C(O)[C@H](CC(=O)N1C[C@@H]2CCCC[C@H]2C1)Cc1ccccc1
 : . | 13%
- CN(C)CCNC(=O)c1ccc(Cn2c(=O)c3cccn3c3cccnc32)cc1
 : 11µM* | -6%
- CCn1cc(C(=O)OCC(=O)Nc2cc(Cl)ccc2OC)c(=O)c2ccc(C)nc21
 : -22% | -7%
- CC(=O)N1CCCc2cc(S(=O)(=O)N3CCCC(C(=O)Nc4cccc(Cl)c4C)C3)ccc21 (stereo unspecified)
 : -43% | ?
- CCc1cccc(C)c1NC(=O)CCS(=O)(=O)c1ccc2c(c1)oc(=O)n2C
 : ? | -3%
- COc1ccc(S(=O)(=O)NCc2ccc3c(c2)CCN3C(=O)c2ccccc2)cc1OC
 : -12% | -27%
- COc1ccccc1CNc1ncnc2c1cnn2-c1ccc(C)cc1
 : ? | ?
- CCCCNC(=O)c1nn(-c2ccc(C)cc2)c(=O)n(C)c1=O
 : 11% | 0%
- CCOc1ccc(C2c3[nH]c4ccccc4c3CCN2C(=O)Cc2cccc(OCC)c2OCC)cc1 (stereo unspecified)
 : -1% | -23%
- CC(C)c1ccc2oc(-c3ccc(Cl)c(NC(=O)c4cccs4)c3)nc2c1
 : ? | ?
- O=C(CN1CCN(Cc2ccccc2Cl)C1=O)NCc1ccccc1Cl
 : -28% | -11%
- Cc1cc(C)c2c(=O)c3c(oc2c1)C(=O)N(CCCOC(C)C)C3c1ccccc1F (stereo unspecified)
 : 1% | -21%
- Cc1ccc(OCC(=O)Nc2cccc(OCc3cc(=O)n4cccc(C)c4n3)c2)cc1C
 : ? | 6%
- COc1ccc(Nc2c(-c3cc(Br)ccc3O)nc3ncccn23)cc1OC
 : -43% | ?
- Cc1ccccc1CN1CCC(CNc2ncnc3onc(-c4ccc(F)cc4)c23)CC1
 : ? | 0%
- CCOc1ccc(N(CC)C(=O)c2cc3c(s2)-c2ccc(Cl)cc2SC3)cc1
 : ? | -10%
- Cc1ccccc1C(=O)Nc1cccc(NC(=O)c2ccc(C(C)(C)C)cc2)c1
 : ? | -11%
- Clc1ccc(-c2noc(-c3cccnc3NCc3ccco3)n2)cc1
 : 0% | 52%[activator]
- Cn1c(=O)cc(SCC(=O)N2CCN(c3ccc(F)cc3)CC2)c2ccc(Cl)cc21
 : ? | -4%
- CCOC(=O)c1ccc(N2C(=O)c3[nH]nc(-c4ccc(C)cc4)c3C2c2cccs2)cc1 (stereo unspecified)
 : ? | ?
- CCc1ccc(N2C(=O)CSC23C(=O)N(Cc2cccc(OC)c2)c2ccccc23)cc1 (stereo unspecified)
 : 13µM* | -35%
- Cc1ccc(NCc2cccn2-c2nnc(N3CCC(C(=O)NCc4ccccc4C)CC3)s2)cc1
 : -55% | ?
- COc1cccc(C2C=C(c3ccc(C)cc3)Nc3c(C(=O)Nc4ccc(F)cc4)cnn32)c1OC (stereo unspecified)
 : ? | -21%
- COc1ccccc1NC(=O)CSc1nnc2c(n1)[nH]c1ccccc12
 : ? | ?
- Cc1c(CC(=O)N2CCCCC2)c(=O)oc2c(C)c3occ(C(C)(C)C)c3cc12
 : ? | -6%
- COc1ccc(N2CCN(S(=O)(=O)c3ccc(F)c(C(=O)Nc4ccccc4Cl)c3)CC2)cc1
 : ? | ?
- Fc1ccc(-c2csc(-c3nc(-c4ccc(Br)s4)cs3)n2)cc1
 : -18% | 8%
- O=C(OCC1CCCO1)c1ccc2c(c1)N(Cc1ccc(F)cc1)C(=O)c1ccccc1S2(=O)=O (stereo unspecified)
 : -4% | -6%
- COc1ccc(Nc2ncnc3c2nc2n3CCCCC2)cc1
 : -5% | 17%
- Cc1ccccc1CNC(=O)c1oc2c(c1C)-c1nn(Cc3ccc(Cl)cc3)cc1CC2
 : ? | ?
- COC(=O)c1cc(-c2ccc(C)cc2)c2c(=O)n(C)c(=O)n(C)c2n1
 : ? | -25%
- CC(C)c1ccc(CNc2n[nH]c(-c3ccco3)n2)cc1
 : -5% | 30%[activator]
- CCN(CCCNC(=O)CSc1cc(=O)n(CC)c2ccccc12)c1cccc(C)c1
 : ? | ?
- O=C(Nc1nc2c(Cl)cccc2s1)c1ccc(S(=O)(=O)N2CCc3ccccc32)cc1
 : -25% | ?
- CNC(=O)c1ccccc1Sc1ccc2c(/C=C/c3ccccn3)n[nH]c2c1
 : . | ?
- CCCCCCCCCC(=O)N[C@@H](Cc1c[nH]c2ccccc12)C(=O)N[C@H](CC(N)=O)C(=O)N[C@@H](CC(=O)O)C(=O)N[C@@H]1C(=O)NCC(=O)N[C@@H](CCCN)C(=O)N[C@@H](CC(=O)O)C(=O)N[C@H](C)C(=O)N[C@@H](CC(=O)O)C(=O)NCC(=O)N[C@H](CO)C(=O)N[C@@H]([C@@H](C)CC(=O)O)C(=O)N[C@@H](CC(=O)c2ccccc2N)C(=O)O[C@@H]1C
 : . | 0%

An excerpt of the results above, for reference:
Values in the order – PMP22 txn | HTT promoter inh
- Cc1ccccc1C(=O)Nc1cccc(NC(=O)c2ccc(C(C)(C)C)cc2)c1
 : ? | -11%
- Clc1ccc(-c2noc(-c3cccnc3NCc3ccco3)n2)cc1
 : 0% | 52%[activator]
- Cn1c(=O)cc(SCC(=O)N2CCN(c3ccc(F)cc3)CC2)c2ccc(Cl)cc21
 : ? | -4%
- CCOC(=O)c1ccc(N2C(=O)c3[nH]nc(-c4ccc(C)cc4)c3C2c2cccs2)cc1 (stereo unspecified)
 : ? | ?
- CCc1ccc(N2C(=O)CSC23C(=O)N(Cc2cccc(OC)c2)c2ccccc23)cc1 (stereo unspecified)
 : 13µM* | -35%

Next results.
Values in the order – PMP22 txn | HTT promoter inh
- O=C(NC1CCCCC1)c1ccc2c(c1)N(Cc1ccccc1F)C(=O)c1ccccc1S2
 : -3% | 6%
- COc1ccc(N(CC(=O)NC(C)c2ccccc2)S(=O)(=O)c2c(C)nn(C)c2C)cc1 (stereo unspecified)
 : -17% | -8%
- CCN(C(=O)c1cc2cc(Br)cc(OC)c2oc1=O)c1ccccc1
 : -17% | -13%
- Cc1ccc(C(=O)N2CCN(c3ccccc3)CC2)cc1NC(=O)c1nsc2ccccc12
 : -2% | -3%
- Cc1cc(C)cc(N2CC(c3nnc(NC(=O)c4ccco4)s3)CC2=O)c1 (stereo unspecified)
 : -186% | -21%
- CCc1ccccc1NC(=O)CN1C(=O)CCc2cc(S(=O)(=O)N3CCCCC3)ccc21
 : ? | -24%
- CC(=O)c1cccc(NC(=O)c2ccc3c(c2)N(Cc2ccc(C)cc2)CCS3)c1
 : -1% | 0%
- Cc1ccc2c(CC(=O)Nc3ccc(S(=O)(=O)N4CCCCC4)cc3)coc2c1C
 : 7% | ?
- CC(NC(=O)c1ccc2c(c1)sc1nc(-c3ccccc3)cn12)C12CC3CC(CC(C3)C1)C2 (stereo unspecified)
 : -4% | -13%
- CCOc1ccc(NC(=O)Cn2nc3c(cc2=O)CC(C)CC3)cc1 (stereo unspecified)
 : 0% | 1%
- CCOC(=O)C(C)(C)Oc1ccc(Cl)cc1
 : . | -2%&-1%
- Cn1c(=O)oc2cc(S(=O)(=O)CCC(=O)N3CCN(c4ccccc4)CC3)ccc21
 : ? | -6%[11.5 µM]
- O=C(c1ccccc1)n1nc(-c2ccc(Cl)cc2)nc1NCc1ccco1
 : ? | 40%[activator]
- Cc1cc(Br)ccc1NC(=O)c1c(C)oc2ncnc(N3CCCCC3)c12
 : ? | -7%

High-throughput results deposited in PubChem by National Center for Advancing Translational Sciences (NCATS).
